High-throughput results: PubChem BioAssay, National Center for Advancing Translational Sciences (NCATS)
SARS PLpro yeast = qHTS of Yeast-based Assay for SARS-CoV PLP; Potency, µM (series often up to 32.9 µM), for the others: top-dose activity, positive = growth rescue; S. cerevisiae expressing SARS-CoV PLpro, growth rescue; control for the full effect not named in the record; 330,000 tested, 0.19% active; note: 0% is about no effect; nearly all actives have a fitted effect of over 55% in size; growth read by luminescence after 48 h
Cruzain inh noDet = qHTS Assay for Promiscuous and Specific Inhibitors of Cruzain (without detergent) | Potency, µM, inactives show max response, negative = inhibition, most hits filed as inhibitors | purified cruzain, Z-FR-AMC fluorescence, no detergent | 200,000 tested, 2.3% active; active = well fitted curve in the direction sought with a large enough effect; inconclusive = small, poorly fitted or top-dose-only effect, or another doubt; inactive = no such curve, though single readings can be large; an effect the other way counts as inactive or inconclusive;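 note: plate controls were enzyme without inhibitor for no effect and buffer without enzyme for full effect; nearly all actives have a fitted effect of over 40% in size; top concentration of the series not given in the record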
Target sequence (P25779 123-467 limits assumed): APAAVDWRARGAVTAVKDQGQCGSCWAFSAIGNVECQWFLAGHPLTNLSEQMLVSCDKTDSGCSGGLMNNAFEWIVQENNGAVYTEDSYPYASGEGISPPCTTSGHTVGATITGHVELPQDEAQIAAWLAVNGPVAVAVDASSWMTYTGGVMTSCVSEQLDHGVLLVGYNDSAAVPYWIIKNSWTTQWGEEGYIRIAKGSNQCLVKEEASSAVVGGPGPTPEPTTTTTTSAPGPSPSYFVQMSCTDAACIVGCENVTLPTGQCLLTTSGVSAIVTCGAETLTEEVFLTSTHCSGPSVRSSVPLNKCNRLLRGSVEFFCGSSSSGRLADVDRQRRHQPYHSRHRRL
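Detergent-free condition (0.00005% Triton X-100) in acetate buffer pH 5.5 with DTT. 1.5 nM enzyme and compound were pre-mixed 15 min, then 2 uM Z-FR-AMC substrate added; reaction progress from fluorescence change between first and third reads (60 s).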
Lassa entry inh = qHTS for Inhibitors of binding or entry into cells for Lassa Virus | Lassa virus pseudotype entry inhibition, cell reporter; control for the full effect not named in the record | Potency, µM (doses to about 37.9 µM), inactives show at the highest dose activity change, negative = inhibition, hits mostly inhibitors | 300,000 tested, 1.2% active | AID 540256, 2011; active means well fitted inhibition curve with a large enough effect; inconclusive means small, poorly fitted or top-dose-only effect, or effect the other way; inactive means flat fitted curve, though single readings scatter; tested in HEK293 cells; note: % is set by controls: 0 for no effect and ±100 for the full control effect; nearly all actives have a fitted effect of over 50% in size; luciferase read-out
NS1 inh = qHTS Assay for Inhibitors of Influenza NS1 Protein Function | Potency, µM (titrated, usually from 46.1 µM), for inactives: top-dose activity, positive = more growth | S. cerevisiae slowed by influenza A NS1, growth recovery by OD600 | AID 2326, 2010 | 270,000 tested, 0.4% active; note: actives are rising curves; nearly all actives have a fitted effect of over 50% in size
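A cell-based growth assay was used: compounds that relieve NS1-induced slow growth of budding yeast raise OD600. Assay medium was yeast nitrogen base with ammonium sulphate and -URA supplement, pH 6.0, with 2% galactose.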
Cruzain inh Det = qHTS Assay for Promiscuous and Specific Inhibitors of Cruzain (with detergent). 200,000 tested, 0.43% active. purified cruzain, Z-FR-AMC fluorescence, 0.01% Triton. Potency, µM, without a hit: max response, negative = inhibition, hits mostly inhibitors. Cruzipain (Trypanosoma cruzi), P25779; active = well fitted curve in the direction sought with a large enough effect; inconclusive = small, poorly fitted or top-dose-only effect, or another doubt; inactive = no such curve, though single readings can be large; an effect the other way counts as inactive or inconclusive;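 note: plate controls were neutral wells for no effect and buffer without enzyme for full effect; nearly all actives have a fitted effect of over 40% in size; top concentration of the series not given in the record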
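Cruzain (1.5 nM) preincubated 15 min at RT with compound in 100 mM sodium acetate pH 5.5, 5 mM DTT, 0.01% Triton X-100. Reaction started with 2 uM Z-FR-AMC; AMC fluorescence (ex 360/em 450 nm) change over 60 s gave rate.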
StopGo reporter = High Throughput Screening for Foot and Mouth Disease Virus Antivirals. Potency, µM (titrated, usually from 57.9 µM), for the others: at the highest dose signal change, negative = less light. human cells with a luciferase reporter of 2A StopGo recoding; control for the full effect not named in the record. AID 1159524, 2015. 410,000 tested, 1.2% active; active = well fitted falling curve with a large enough effect; inconclusive = small, poorly fitted or top-dose-only effect; inactive = no such curve, though single readings can be large or run the other way; tested in HEK293T cells; note: % is set by controls: 0 for no effect and ±100 for the full control effect; nearly all actives have a fitted effect of over 45% in size; luciferase light after 4 h
RE007 growth inh = qHTS Assay for Inhibitors of the HIV-1 protein Vpr. S. pombe RE007 Vpr strain, BacTiter-Glo ATP luminescence, 24 h; control for the full effect not named in the record. Potency, µM (highest dose often 92.2 µM), without a hit: at the highest dose activity change, negative = less growth. 360,000 tested, 0.21% active. AID 651644, 2012; active = well fitted falling curve with a large enough effect; inconclusive = small, poorly fitted or top-dose-only effect; inactive = no such curve, though single readings can be large or run the other way;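 note: % is set by controls: 0 for no effect and ±100 for the full control effect; nearly all actives have a fitted effect of over 50% in size; the assay follows cell death caused by Vpr and the record does not say whether a fall means rescue or toxicity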
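Fission yeast strain RE007, carrying one chromosomally integrated HIV-1 vpr copy, was seeded at OD 0.01 in PMG+AL medium with 23 nL pinned compound. After 24 h at 30 °C and 99% humidity, viability was read by BacTiter-Glo luminescence.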
MARV entry inh = qHTS for inhibitors of binding or entry into cells for Marburg Virus | Marburg virus pseudotyped entry inhibition, cell reporter; control for the full effect not named in the record; about a third of the inactives were read at about 46 µM | Potency, µM (titrated, usually from 37.8 µM), without a hit: top-dose activity change, negative = inhibition, usual class: inhibitors | 300,000 tested, 1.8% active | AID 540276, 2011; active = well fitted inhibition curve with a large enough effect; inconclusive = small, poorly fitted or top-dose-only effect, or effect the other way; inactive = flat fitted curve, though single readings scatter; tested in HEK293 cells; about a fifth of its hits are not listed in these tables; note: % is set by controls: 0 for no effect and ±100 for the full control effect; luciferase read-out
* marks the source's active call; other numbers are inactive results; & = joins results of further samples; [ ] = dose if it differs, or a comment. Unless noted, calls come from the whole dose curve; as a rule, active means well fitted rising curve with a large enough effect; inconclusive means small, poorly fitted or top-dose-only effect; inactive means no such curve, though single readings can be large or run the other way. Potency is the fitted concentration of half-maximal effect.

CCCC(=O)N1CCN(c2ccc(NC(=O)C(C)(C)C)cc2Cl)CC1 was read as SARS PLpro yeast -1%, Lassa entry inh 28%[46.1 µM], StopGo reporter 0%, RE007 growth inh -3% and MARV entry inh -1%[46.1 µM].
Screening CCCC(=O)Nc1ccccc1-c1nnn(CC(=O)Nc2ccc(OC)cc2)n1 returned SARS PLpro yeast -4%, Cruzain inh noDet 10%, Lassa entry inh inconclusive, NS1 inh 3%, Cruzain inh Det -0.8%, StopGo reporter -27%, RE007 growth inh 1% and MARV entry inh -8%.
`O=C(OCC(=O)N1CCc2ccccc21)c1ccccc1F` gave SARS PLpro yeast -8%, Lassa entry inh 11%[46.1 µM], NS1 inh -23%, StopGo reporter 45%[activator], RE007 growth inh -14% and MARV entry inh 24%[46.1 µM].
COc1cc(/C=C2/SC(=S)N(c3c(C)n(C)n(-c4ccccc4)c3=O)C2=O)ccc1O was read as SARS PLpro yeast 0%, Lassa entry inh -10%[46.1 µM], NS1 inh 1%, StopGo reporter 13%, RE007 growth inh -12% and MARV entry inh inconclusive.
Screening Cc1c(C(=O)O)c(-c2ccccc2)nn1-c1ccccc1 returned SARS PLpro yeast 2%, Cruzain inh noDet -3%, Lassa entry inh -15%, NS1 inh 11%, Cruzain inh Det -1.1%, StopGo reporter -8%, RE007 growth inh 8% and MARV entry inh 5%[46.1 µM].
COc1cc(CN2CCCC(CO)(Cc3cccc(Cl)c3)C2)cc(OC)c1O (configuration not stated) was read as SARS PLpro yeast 0%, NS1 inh -4%, StopGo reporter -6% and RE007 growth inh 6%.
For O=C(CNC(=O)c1[nH]cnc1C(=O)N[C@@H](Cc1ccccc1)C(=O)OCc1ccccc1)OCc1ccccc1 the results were SARS PLpro yeast 13%, NS1 inh inconclusive, StopGo reporter -16% and RE007 growth inh 2%.
Screening O=C(Nc1c[nH]c2c(Cl)cccc2c1=O)N1CCN(c2ccccn2)CC1 returned SARS PLpro yeast 11%, NS1 inh -2%, StopGo reporter 29% and RE007 growth inh -1%.
Screening CCOc1ccc(CCNC(=O)c2nn(-c3ccc(OC)c(Cl)c3)c(=O)c3c2c2ccccc2n3C)cc1OCC returned Cruzain inh noDet -7%, Lassa entry inh 28%[46.1 µM], Cruzain inh Det -2.4%, StopGo reporter -25% and MARV entry inh -22%[46.1 µM].
Screening COC(=O)C(NC(C)=O)(Nc1cc(C)ccn1)C(F)(F)F (configuration not stated) returned SARS PLpro yeast 0%, Lassa entry inh -2%, NS1 inh -1%, StopGo reporter -3%, RE007 growth inh -15% and MARV entry inh 3%[46.1 µM].
For CC(C)C(=O)NCCc1nc2ccccc2n1CCCOc1ccc(Cl)cc1 the results were SARS PLpro yeast -10%, Cruzain inh noDet 22%, Lassa entry inh inconclusive, NS1 inh -12%, Cruzain inh Det -1.7%, StopGo reporter inconclusive, RE007 growth inh -2% and MARV entry inh inconclusive.
Screening CN(CC(=O)NC1CCCC1)S(=O)(=O)c1cccc(Cl)c1 returned SARS PLpro yeast 6%, Lassa entry inh 4%, StopGo reporter -23%, RE007 growth inh 1% and MARV entry inh -16%.
Screening CCOC(=O)c1cc(-c2ccccc2)n(CCC(=O)Nc2ccc(OC)c(Cl)c2)c1C returned Cruzain inh noDet 3%, Lassa entry inh inconclusive, Cruzain inh Det -3.2% and StopGo reporter -9%.
Screening CCCN[C@@H]1C(=O)N2C(C(=O)OCCC)=C(C)CS[C@H]12 returned SARS PLpro yeast 4%, NS1 inh 26%, StopGo reporter -13% and RE007 growth inh 24%.
`CCN(CC)S(=O)(=O)c1ccc(-n2cnc3cc(C)c(C)cc32)nc1` gave SARS PLpro yeast 1%, Lassa entry inh -30%, NS1 inh -3%, StopGo reporter inconclusive, RE007 growth inh -3% and MARV entry inh inconclusive.
For CC(C)(C)n1nc2c(c1NC(=O)C1CC(=O)N(c3ccc(Cl)cc3)C1)CS(=O)(=O)C2 (configuration not stated) the results were SARS PLpro yeast -2%, Lassa entry inh -9%, NS1 inh 6%, StopGo reporter -14%, RE007 growth inh 0% and MARV entry inh -3%.
`Cc1ccc(COC(=O)c2cccc(S(=O)(=O)N3CCCCCC3)c2)cc1` gave SARS PLpro yeast 1%, Lassa entry inh inconclusive, StopGo reporter -22%, RE007 growth inh 18% and MARV entry inh inconclusive.
`CCSc1nnc(-c2sc3nnc(-c4ccccc4)c(-c4ccccc4)c3c2N)o1` gave SARS PLpro yeast 1%, Cruzain inh noDet inconclusive, Lassa entry inh -10%, NS1 inh 29%, Cruzain inh Det 1.5%, StopGo reporter -15%, RE007 growth inh 7% and MARV entry inh -24%.
`CCOC(=O)c1[nH]c(C)c(C(=O)OCC(=O)N2CCCCC2C)c1C` (configuration not stated) gave SARS PLpro yeast -8%, Cruzain inh noDet 14%, Lassa entry inh -16%, NS1 inh -4%, Cruzain inh Det 2.2%, StopGo reporter 3%, RE007 growth inh 2% and MARV entry inh -2%.
`COc1ccc(CCNC(=O)CC(Cc2ccccc2)C(=O)O)cc1OC` (configuration not stated) gave SARS PLpro yeast 0%, Lassa entry inh 12%, NS1 inh 0%, StopGo reporter -11%, RE007 growth inh -10% and MARV entry inh 25%.
For Cc1cccn2cc(CCNS(=O)(=O)c3ccc4c(c3)OCCO4)nc12 the results were SARS PLpro yeast 3%, Cruzain inh noDet 0%, NS1 inh -48%, Cruzain inh Det -6.8%, StopGo reporter -11% and RE007 growth inh 2%.
For Oc1ccc(NCc2ccc(OCc3ccccc3Cl)cc2)cc1 the results were Cruzain inh noDet -27%, Lassa entry inh inconclusive, Cruzain inh Det -15%, StopGo reporter 13% and MARV entry inh inconclusive.
Screening COc1cccc(Nc2nnc(SCc3nc4ccccc4s3)s2)c1 returned SARS PLpro yeast 13%, Cruzain inh noDet -13%, Lassa entry inh 10%, NS1 inh -1%, Cruzain inh Det -9.3%, StopGo reporter 53%[activator], RE007 growth inh 9% and MARV entry inh 27%.
For COc1cc(NC(=S)NCCCN2CCOCC2)c(OC)cc1NC(=O)c1ccco1 the results were SARS PLpro yeast 2%, Lassa entry inh inconclusive, NS1 inh -4%, StopGo reporter -2%, RE007 growth inh 15% and MARV entry inh 6%[46.1 µM].
O=C(NC(NC(=S)Nc1cccc(C(=O)O)c1)C(Cl)(Cl)Cl)OCc1ccccc1 (configuration not stated) was read as SARS PLpro yeast 8%, Cruzain inh noDet -8%, Lassa entry inh 13%, NS1 inh inconclusive, Cruzain inh Det -22%, StopGo reporter 12%, RE007 growth inh 1% and MARV entry inh inconclusive.
Cc1cc(NC(=O)CSc2nnc(Cc3ccccc3)n2C)no1 was read as SARS PLpro yeast -5%, Cruzain inh noDet -13%, Lassa entry inh 28%, NS1 inh 0%, Cruzain inh Det 0.9%, StopGo reporter 1%, RE007 growth inh -2% and MARV entry inh 13%.
Screening CCc1ccc(C(=O)NNC(=O)c2cccc(S(=O)(=O)N3CCN(C)CC3)c2)cc1 returned SARS PLpro yeast -1%, Lassa entry inh 15%, StopGo reporter -14%, RE007 growth inh -15% and MARV entry inh 0%.
`CCn1c2c(c(=O)n3ncc(C(=O)Nc4ccc(C(=O)OC)cc4)c13)CN(Cc1ccc(OC)cc1)CC2` gave Cruzain inh noDet inconclusive, Lassa entry inh 26%[46.1 µM], Cruzain inh Det -8.4% and StopGo reporter -3%.
Screening N=c1c[n+](N2CCOCC2)[n-]o1 returned SARS PLpro yeast 4%, Cruzain inh noDet -6%&6%, Lassa entry inh 12%&0%, NS1 inh -4%&1%, Cruzain inh Det -2.0%&5.7%, StopGo reporter 0%, RE007 growth inh -6% and MARV entry inh -1%&-8%&-1%&18%&-1%&-1%.
For CC(C)Oc1ccc(/C=C(\NC(=O)/C=C/c2ccco2)C(=O)NCCc2nc3ccccc3[nH]2)cc1 the results were SARS PLpro yeast 6%, Cruzain inh noDet -6%, Lassa entry inh inconclusive, NS1 inh -3%, Cruzain inh Det -9.0%, StopGo reporter inconclusive, RE007 growth inh 13% and MARV entry inh inconclusive.
`O=C(COC(=O)c1ccco1)Nc1ccc2c(c1)OCCO2` gave SARS PLpro yeast -3%, Cruzain inh noDet -7%, Lassa entry inh 11%, NS1 inh -12%, Cruzain inh Det 2.4%, StopGo reporter 70%[activator], RE007 growth inh 13% and MARV entry inh 0%.
`CCOc1ccc(-n2c(=O)c3c4c(sc3n(CC(=O)NC(C)CC)c2=O)CCCC4)cc1` (configuration not stated) gave Cruzain inh noDet -11%, Lassa entry inh -15%[46.1 µM], Cruzain inh Det -2.5%, StopGo reporter 6% and MARV entry inh -1%[46.1 µM].
CCc1ccc2occ(CC(=O)Nc3c(C(=O)c4ccc(C)cc4)oc4ccccc34)c2c1 was read as Cruzain inh noDet -22%, Lassa entry inh -13%[46.1 µM], Cruzain inh Det -1.5%, StopGo reporter -9% and MARV entry inh -13%[46.1 µM].
For O=C(N/N=C\c1ccc([N+](=O)[O-])s1)C1COc2ccccc2O1 (configuration not stated) the results were SARS PLpro yeast -1%, NS1 inh -49%, StopGo reporter -18% and RE007 growth inh -5%.
Screening CN1CCN(C(=O)c2cc3nc(-c4ccc(Cl)cc4)cc(C(F)(F)F)n3n2)CC1 returned SARS PLpro yeast -5%, Cruzain inh noDet -7%, Lassa entry inh -9%, NS1 inh 6%, Cruzain inh Det -6.6%, StopGo reporter -28%, RE007 growth inh -9% and MARV entry inh inconclusive.
Screening O=[N+]([O-])c1cnc(Nc2ccccc2)nc1Nc1ccccc1 returned SARS PLpro yeast 1%, Lassa entry inh 26%[46.1 µM], NS1 inh -1%, StopGo reporter -20%, RE007 growth inh -1% and MARV entry inh inconclusive.
CC1CCN(C(=O)c2ccc(S(=O)(=O)Cc3cccc(F)c3)c([N+](=O)[O-])c2)CC1 was read as SARS PLpro yeast -19%, Cruzain inh noDet 5%, Lassa entry inh -5%, NS1 inh -9%, Cruzain inh Det -2.1%, StopGo reporter inconclusive, RE007 growth inh -24% and MARV entry inh inconclusive.
Screening S=C(S)N1CCCC1 returned Cruzain inh noDet -8%&8%, Lassa entry inh inconclusive, NS1 inh -39%, Cruzain inh Det -3.0%&-6.2%, StopGo reporter -17%&-20%, RE007 growth inh -5% and MARV entry inh inconclusive.
